Screening data (PubChem BioAssay)
Env fusion inh – blocks HIV Env-driven cell-cell fusion; HeLa-JRFL Env/CEM21 cell fusion, luciferase; inhibition, % at 12.3 µM; 360,000 tested, 1.1% active;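 active = mean replicate inhibition score of at least 50 and every replicate individually at or above 50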;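 also: 0% = plate neutral controls and 100% = maraviroc near 300 nM; one replicate is shown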
CSC inhib – cancer stem cell inhibition; 300,000 tested, 1.1% active; cancer stem cell-like cells viability, luminescence; AID 2717; inhibition, % at 7.5 µM;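 active = mean at 75% or more and at least half the replicates too; tested in HMLE shEcad cells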;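 also: 0% = median of negative and 100% = median of positive control wells; the first replicate is given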
PABP polyA inh – blocks human PABP binding to poly(A) RNA; P11940; fluorescence polarization; inhibition, % at 35 µM; 290,000 tested, 1% active; AID 2014;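 active = 50% or more with normal probe brightness, or confirmed in later tests; about a fifth of its hits are not listed in these tables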;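 also: calls also rest on retests at 20 µM and on dose response follow-up; controls were probe without protein and protein plus probe with vehicle; some compounds called inactive have numbers as strong as hits; many hits fall short of the cut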
Target sequence (P11940 whole entry, looked up): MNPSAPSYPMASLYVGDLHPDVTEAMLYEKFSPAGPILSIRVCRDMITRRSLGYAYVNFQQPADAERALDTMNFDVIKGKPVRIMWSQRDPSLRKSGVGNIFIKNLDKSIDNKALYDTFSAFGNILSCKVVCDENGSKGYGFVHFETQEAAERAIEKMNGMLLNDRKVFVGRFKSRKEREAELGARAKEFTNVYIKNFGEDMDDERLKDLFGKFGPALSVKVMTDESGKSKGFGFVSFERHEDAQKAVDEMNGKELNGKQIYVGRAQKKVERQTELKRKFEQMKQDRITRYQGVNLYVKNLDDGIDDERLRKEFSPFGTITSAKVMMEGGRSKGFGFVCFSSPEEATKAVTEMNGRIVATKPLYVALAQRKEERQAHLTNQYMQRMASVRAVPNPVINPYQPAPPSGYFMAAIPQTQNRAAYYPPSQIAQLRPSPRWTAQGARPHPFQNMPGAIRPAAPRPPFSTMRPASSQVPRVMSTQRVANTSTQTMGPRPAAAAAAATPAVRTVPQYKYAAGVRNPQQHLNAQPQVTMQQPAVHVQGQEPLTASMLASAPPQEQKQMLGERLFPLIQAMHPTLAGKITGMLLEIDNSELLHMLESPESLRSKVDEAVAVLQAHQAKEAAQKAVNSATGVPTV
Yeast UUG start – yeast start codon fidelity modulation; S. cerevisiae UUG-firefly luciferase reporter, luminescence/redox ratio; activity score, % at 18.7 µM; 350,000 tested, 0.13% active; AID 602363;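 active = replicate mean at a twofold rise or more, about +100% in these data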;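 also: firefly luciferase made from a UUG start codon reports start codon fidelity; reporter light over untreated wells divided by growth signal over untreated wells; some hits fall short of that in this replicate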
MT1-MMP act inh – MT1-MMP (human) activation inhibition | P50281 | HT1080 RFP-PRO-GFP cells, GFP/RFP ratio fluorescence, overnight; percent of plate control window, DMSO zero | GFP/RFP ratio change, % at 20 µM | 360,000 tested, 0.061% active | AID 651647;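 active = GFP/RFP ratio change of at least 30% with cell ATP level not reduced by more than half and red fluorescence within 50% of control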; also: strong numbers were not always called active
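Test system: HT1080 cells expressing an RFP-PRO-GFP fluorescent reporter construct / Compound dosing: single-point 20 µM compound, 1% DMSO / Schedule: cells overnight before dosing, compound overnight, 37 °C, 5% CO2 / Evaluation: GFP/RFP fluorescence ratio / Control set: DMSO and RFP-L50D-GFP cell wells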
eIF4H FP inh – inhibitors of RNA binding by human eIF4H; Q15056; eIF4H fluorescence polarization binding assay; inhibition, % at 35 µM; 290,000 tested, 0.94% active; AID 2012;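 active = 50% or more with normal probe brightness, or confirmed in later tests; about a fifth of its hits are not listed in these tables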;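 also: calls also rest on retests at 20 µM and on dose response follow-up; 0% = protein and probe with vehicle and 100% = probe without protein; strong numbers were not always called active; many hits fall short of the cut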
Rce1 inh – inhibitors of yeast Ras-converting enzyme. calls only. yeast membranes, quenched prenylated peptide cleavage fluorescence. Q03530. 290,000 tested, 0.27% active;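 active = fall in fluorescence gain of 50% or more versus controls, with final raw signal at or below 3038400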;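 also: plate controls were neutral control wells for no effect and wells lacking membranes for full effect; tested at 10 µM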
Target sequence (Q03530 whole entry, looked up): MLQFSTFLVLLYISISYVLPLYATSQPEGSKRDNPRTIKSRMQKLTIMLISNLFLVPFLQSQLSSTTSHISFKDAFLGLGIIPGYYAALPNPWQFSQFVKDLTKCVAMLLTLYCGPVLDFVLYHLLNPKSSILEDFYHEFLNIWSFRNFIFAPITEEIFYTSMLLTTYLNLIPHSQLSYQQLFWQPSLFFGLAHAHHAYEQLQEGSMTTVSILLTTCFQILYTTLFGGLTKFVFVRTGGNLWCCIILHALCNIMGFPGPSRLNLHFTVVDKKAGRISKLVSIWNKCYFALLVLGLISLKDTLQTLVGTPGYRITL
MT1-MMP act inh RFP – recorded beside MT1-MMP act inh, whose call it bears; RFP signal change, %; measured here: RFP expression control read;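 0 = vehicle wells; hits needed this value within 50% of zero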
Starred values were filed as active, the others as inactive.

For CSc1nc(-c2ccco2)cc(-c2ccccc2)c1C#N the results were CSC inhib 10, PABP polyA inh -1, Yeast UUG start 3, MT1-MMP act inh -5, eIF4H FP inh 0, Rce1 inh inactive and MT1-MMP act inh RFP 0.
`CCCNC(=O)CC1Sc2ccccc2NC1=O` (configuration not stated) gave Env fusion inh -55, CSC inhib -5, PABP polyA inh 6, Yeast UUG start -4, MT1-MMP act inh 0, eIF4H FP inh -6, Rce1 inh inactive and MT1-MMP act inh RFP 0.
Screening COc1ccc(C(CNC(=O)COc2ccccc2C)N2CCCC2)cc1 (configuration not stated) returned Env fusion inh -4, CSC inhib 3, PABP polyA inh -5, Yeast UUG start 2, MT1-MMP act inh -1, eIF4H FP inh -17, Rce1 inh inactive and MT1-MMP act inh RFP -3.
Cc1cc(C)c(NC(=O)COC(=O)c2c(C)noc2C)c(Cl)c1 was read as Env fusion inh -2, CSC inhib 3, Yeast UUG start -15, MT1-MMP act inh -5 and MT1-MMP act inh RFP -7.
Cc1nc(C)c(C(=O)OCC(=O)NCCc2ccc(S(N)(=O)=O)cc2)s1 was read as Env fusion inh 9, CSC inhib -9, Yeast UUG start -18, MT1-MMP act inh -2 and MT1-MMP act inh RFP 1.
`CCS(=O)c1ccccc1C(=O)O` (configuration not stated) gave Env fusion inh -51, CSC inhib -15, PABP polyA inh 16, Yeast UUG start 1, MT1-MMP act inh 5, eIF4H FP inh -6, Rce1 inh inactive and MT1-MMP act inh RFP 2.
`CC(C)(O)CCc1c(-c2ccc(O)cc2O)oc2c3c(cc(O)c2c1=O)OC(C)(C)C=C3` gave CSC inhib -8, Yeast UUG start 22, MT1-MMP act inh 5, Rce1 inh inactive and MT1-MMP act inh RFP -2.
COc1cccc(NC(=O)N2CCC(NC(=O)C(Cc3ccccc3F)NC(C)=O)CC2)c1 (configuration not stated) was read as Env fusion inh 11, CSC inhib -10, PABP polyA inh 4, Yeast UUG start -1, MT1-MMP act inh 2, eIF4H FP inh 4, Rce1 inh inactive and MT1-MMP act inh RFP 4.
`CCn1cc(CN2CCC(C(=O)Nc3cccc(-c4cccc(Cl)c4)c3)CC2)cn1` gave Env fusion inh -7, CSC inhib 0, PABP polyA inh -3, Yeast UUG start -19, MT1-MMP act inh 4, eIF4H FP inh -7, Rce1 inh inactive and MT1-MMP act inh RFP 2.
CSCC[C@H](NC(=O)Nc1ccc(C)cc1C)C(=O)O was read as CSC inhib -16, PABP polyA inh -1, Yeast UUG start -9, MT1-MMP act inh 3, eIF4H FP inh -4, Rce1 inh inactive and MT1-MMP act inh RFP 4.
`COc1cccc(/C=N/Nc2ccc(S(=O)(=O)O)cc2)c1O` gave Env fusion inh 24, CSC inhib -10, PABP polyA inh 4, Yeast UUG start -5, MT1-MMP act inh 3, eIF4H FP inh 19, Rce1 inh inactive and MT1-MMP act inh RFP 7.
Screening Cc1cc(NC(=O)C2CCCCC2)ncc1NC(=O)c1ccccn1 returned Env fusion inh -11, CSC inhib 2, PABP polyA inh 8, MT1-MMP act inh -5, eIF4H FP inh -6, Rce1 inh inactive and MT1-MMP act inh RFP -8.
For COC(=O)c1cccc(NC(=O)CSCc2ccccc2)c1 the results were Env fusion inh -1, CSC inhib -2, PABP polyA inh 13, Yeast UUG start 1, MT1-MMP act inh -1, eIF4H FP inh -2, Rce1 inh inactive and MT1-MMP act inh RFP -2.
`CN(CC(=O)N1CCCCCC1)S(=O)(=O)c1ccc(Br)s1` gave CSC inhib -6, PABP polyA inh -1, eIF4H FP inh -6 and Rce1 inh inactive.
For CCc1cc2c(-c3ccccc3)cc(=O)oc2cc1OCC(C)=O the results were Env fusion inh 10, CSC inhib -19, PABP polyA inh 8, Yeast UUG start -2, MT1-MMP act inh -4, eIF4H FP inh 4, Rce1 inh inactive and MT1-MMP act inh RFP -4.
For COCCNC(=O)c1onc(CSc2nc3ccccc3[nH]2)c1C(=O)NCCOC the results were Env fusion inh 10, CSC inhib -12, PABP polyA inh -1, Yeast UUG start -15, MT1-MMP act inh -1, eIF4H FP inh 1, Rce1 inh inactive and MT1-MMP act inh RFP 1.
For CC1CC(NC(=O)/C(C#N)=C/c2ccc[nH]2)CC(C)(C)C1 (configuration not stated) the results were Env fusion inh 1, CSC inhib 5, PABP polyA inh -5, MT1-MMP act inh 3, eIF4H FP inh -7, Rce1 inh inactive and MT1-MMP act inh RFP -2.
CC1CCN(C(=O)COC(=O)c2ccc(F)c(S(=O)(=O)N3CCOCC3)c2)CC1 was read as Env fusion inh -7, CSC inhib -3, PABP polyA inh -1, Yeast UUG start 4, MT1-MMP act inh -2, eIF4H FP inh -15, Rce1 inh inactive and MT1-MMP act inh RFP -3.
O=C(Nc1ccc(OCC(F)(F)C(F)F)c(C(F)(F)F)c1)c1ccccc1O was read as Env fusion inh 78*, CSC inhib 1, PABP polyA inh -7, Yeast UUG start -20, MT1-MMP act inh -29, eIF4H FP inh -12, Rce1 inh inactive and MT1-MMP act inh RFP -28.
`CN(C(=O)COC(=O)c1cc(S(=O)(=O)N2CCOCC2)ccc1Cl)C1CCS(=O)(=O)C1` (configuration not stated) gave Env fusion inh -3, CSC inhib -16, Yeast UUG start -12, MT1-MMP act inh -1, Rce1 inh inactive and MT1-MMP act inh RFP 2.
CC(C)(C)NC(=O)C(=O)NCc1ccncc1 was read as Env fusion inh 8, CSC inhib -5, PABP polyA inh -7, MT1-MMP act inh 2, eIF4H FP inh 6, Rce1 inh inactive and MT1-MMP act inh RFP 6.
CCc1nnc(NC(=O)CSc2nnc(COc3ccc(C)cc3)n2-c2ccccc2)s1 was read as Env fusion inh 4, CSC inhib 22, PABP polyA inh -9, Yeast UUG start -17, MT1-MMP act inh -2, eIF4H FP inh -3, Rce1 inh inactive and MT1-MMP act inh RFP -3.
`c1ccc(N/N=C(\Cc2ncc[nH]2)c2ccccc2)cc1` gave Env fusion inh 13, CSC inhib 2, PABP polyA inh 1, MT1-MMP act inh 1, eIF4H FP inh 24, Rce1 inh inactive and MT1-MMP act inh RFP 7.
`O=c1[nH]c(C2CCCN(S(=O)(=O)c3cccc(F)c3)C2)nc2c1nnn2Cc1ccccc1` (configuration not stated) gave Env fusion inh 5, CSC inhib -1, PABP polyA inh 16, Yeast UUG start -21, MT1-MMP act inh 4, eIF4H FP inh -5, Rce1 inh inactive and MT1-MMP act inh RFP -1.
c1ccc(Cn2c(NCc3ccncc3)nc3ccccc32)cc1 was read as Env fusion inh 15, CSC inhib -11, PABP polyA inh -3, MT1-MMP act inh 0, eIF4H FP inh -6, Rce1 inh inactive and MT1-MMP act inh RFP 1.
Screening Cc1cc(Cl)ccc1NC(=S)NCc1ccc(S(N)(=O)=O)cc1 returned Env fusion inh 10, CSC inhib -10, PABP polyA inh -10, MT1-MMP act inh 3, eIF4H FP inh -7, Rce1 inh inactive and MT1-MMP act inh RFP 1.
For COc1ccc(S(=O)(=O)N2CCCCC2c2cc(C(=O)Nc3ccccc3)no2)cc1 (configuration not stated) the results were Env fusion inh 2, Yeast UUG start -3, MT1-MMP act inh 0 and MT1-MMP act inh RFP -4.
O=[N+]([O-])c1ccc(S(=O)(=O)NCCCc2ccccc2)cc1 was read as Env fusion inh -7, CSC inhib -4, Yeast UUG start -11, MT1-MMP act inh -1 and MT1-MMP act inh RFP 0.
O=C(N[C@@H](c1ccccc1)[C@H](O)c1ccccc1)[C@@H]1CCCN1C(=O)OCc1ccccc1 was read as Env fusion inh -68, CSC inhib -10, Yeast UUG start 10, MT1-MMP act inh 1, Rce1 inh inactive and MT1-MMP act inh RFP 3.
O=CNc1cc(-c2ccoc2)cn2c(-c3ccc(F)cc3)cnc12 was read as Env fusion inh -4, Yeast UUG start -12, MT1-MMP act inh -11 and MT1-MMP act inh RFP 2.

Retrieved by structure from above (2):
For CCc1cc2c(-c3ccccc3)cc(=O)oc2cc1OCC(C)=O the results were Env fusion inh 10, CSC inhib -19, PABP polyA inh 8, Yeast UUG start -2, MT1-MMP act inh -4, eIF4H FP inh 4, Rce1 inh inactive and MT1-MMP act inh RFP -4.
c1ccc(Cn2c(NCc3ccncc3)nc3ccccc32)cc1 was read as Env fusion inh 15, CSC inhib -11, PABP polyA inh -3, MT1-MMP act inh 0, eIF4H FP inh -6, Rce1 inh inactive and MT1-MMP act inh RFP 1.

Later entries.
For CSc1ccc(/C=N/NC(=O)c2cccc(Cl)c2)cc1 the results were Env fusion inh -61, CSC inhib 11, PABP polyA inh -5, MT1-MMP act inh -1, eIF4H FP inh -2, Rce1 inh inactive and MT1-MMP act inh RFP -1.
`CCOc1ccc(-c2cc(C(=O)N/N=C(\C)c3cccnc3)c3ccccc3n2)cc1` gave Env fusion inh -126, CSC inhib 8, PABP polyA inh 11, Yeast UUG start -16, MT1-MMP act inh 0, eIF4H FP inh 0, Rce1 inh inactive and MT1-MMP act inh RFP 5.
CC(C)C(=O)NC(=S)N1CCc2ccccc21 was read as Env fusion inh 17, CSC inhib -4, PABP polyA inh 2, Yeast UUG start -11, MT1-MMP act inh -5, eIF4H FP inh 2, Rce1 inh inactive and MT1-MMP act inh RFP -7.
CCC(C)Sc1nc2c(cnn2-c2ccc(F)cc2)c(=O)[nH]1 (configuration not stated) was read as Env fusion inh 11, CSC inhib 0, PABP polyA inh -10, Yeast UUG start -10, MT1-MMP act inh 6, eIF4H FP inh -10, Rce1 inh inactive and MT1-MMP act inh RFP -2.
Screening COC(CN(C)C(=O)c1cn(C)c2ccc(S(=O)(=O)N(C)C3CCCCC3)cc2c1=O)OC returned Env fusion inh 5, CSC inhib -7, PABP polyA inh 2, Yeast UUG start -5, MT1-MMP act inh -2, eIF4H FP inh -7, Rce1 inh inactive and MT1-MMP act inh RFP -5.
Cc1nnc(NC(=O)C2CCCN(S(=O)(=O)c3ccccc3C(F)(F)F)C2)s1 (configuration not stated) was read as CSC inhib -3, PABP polyA inh -1, Yeast UUG start -1, MT1-MMP act inh 6, eIF4H FP inh -3, Rce1 inh inactive and MT1-MMP act inh RFP 3.
`CCOC(=O)c1ccc(Nc2cc3ccccc3c(=O)[nH]2)cc1` gave Env fusion inh -21, CSC inhib 10, Yeast UUG start -81, MT1-MMP act inh -6, Rce1 inh inactive and MT1-MMP act inh RFP 3.
O=C(Nc1ccc(C(=O)N2CCCCC2)cc1)C1=CSCCO1 was read as Env fusion inh -10, CSC inhib 8, PABP polyA inh 1, Yeast UUG start -39, MT1-MMP act inh 1, eIF4H FP inh 7, Rce1 inh inactive and MT1-MMP act inh RFP 2.
`CCN(Cc1ccccc1)C(=O)C1CCN(C/C(C)=C/c2ccccc2)CC1` gave Env fusion inh 30, CSC inhib 36, PABP polyA inh 17, Yeast UUG start 36, MT1-MMP act inh 4, eIF4H FP inh -3, Rce1 inh inactive and MT1-MMP act inh RFP 6.
`Cc1nnc(C)c2c(C)n(-c3ccc(Br)cc3)c(C)c12` gave PABP polyA inh -5, eIF4H FP inh -2 and Rce1 inh inactive.
Cc1cc(C)n(-c2nc3ccccc3c(=O)n2OCC(=O)N(C)C)n1 was read as CSC inhib 8, PABP polyA inh 2, Yeast UUG start -9, MT1-MMP act inh 3, eIF4H FP inh -16, Rce1 inh active and MT1-MMP act inh RFP 5.
Screening CC1CCC(NC(=O)COC(=O)c2n[nH]c(=O)c3ccccc23)CC1 (configuration not stated) returned Env fusion inh 4, CSC inhib 1, Yeast UUG start -17, MT1-MMP act inh 2, Rce1 inh inactive and MT1-MMP act inh RFP 3.
For Cc1cc(C(=O)CSc2nc3ccccc3o2)c(C)n1CC1CCCO1 (configuration not stated) the results were CSC inhib -3, PABP polyA inh 68*, MT1-MMP act inh -6, eIF4H FP inh 52*, Rce1 inh inactive and MT1-MMP act inh RFP -29.
Screening Cc1ccc(C)c(OCc2cc(C(=O)N3CCc4sccc4C3)no2)c1 returned CSC inhib -6, PABP polyA inh -9, Yeast UUG start -20, MT1-MMP act inh -2, eIF4H FP inh -13 and MT1-MMP act inh RFP -1.
Screening Cc1nn(CC(=O)Nc2ccc(Cl)cn2)c(C)c1Br returned Env fusion inh -111, CSC inhib -8, PABP polyA inh 1, MT1-MMP act inh 0, eIF4H FP inh -2, Rce1 inh inactive and MT1-MMP act inh RFP 3.

The list is partial, so the mix of outcomes need not match the whole.
